APJ antag = antagonists of human apelin receptor APJ, primary screen, CHO-K1 cells, beta-arrestin complementation, luminescence; 0.32% of 330,000 active; AID 2521, 2010; inhibition, % at 20 µM; P35414;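 active = inhibition above about 40% at 20 µM, limit read from the data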;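 note: cells challenged with 10 nM apelin-13 agonist together with compound; plate controls were apelin-13 plus DMSO wells for no effect and DMSO wells lacking apelin-13 for full effect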
EBI2 block = EBI2 receptor antagonists, beta-arrestin recruitment, primary screen, cell-based, luminescence, 7a,25-OHC stimulation, uHTS. G-protein coupled receptor 183 (Homo sapiens), P32249. 7a,25-OHC stimulated. inhibition, % at 5 µM. 0.81% of 360,000 active. AID 651636, 2012; in the data active = inhibition above about 38%;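 note: enzyme fragment complementation signal reports receptor beta-arrestin coupling in cells; 0% = agonist plus DMSO wells and 100% = wells without agonist; some results beyond the cut were filed as inactive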
UBC13 inh = UBC13 polyubiquitin chain formation inhibitors, primary screen, biochemical, TR-FRET, uHTS; inhibition, % at 20 µM; AID 485273, 2010; Ubiquitin-conjugating enzyme E2 N (Homo sapiens), P61088; 0.47% of 330,000 active; in the data active = inhibition above about 45%, passing the limit was not always enough
Target sequence (P61088 whole entry, looked up): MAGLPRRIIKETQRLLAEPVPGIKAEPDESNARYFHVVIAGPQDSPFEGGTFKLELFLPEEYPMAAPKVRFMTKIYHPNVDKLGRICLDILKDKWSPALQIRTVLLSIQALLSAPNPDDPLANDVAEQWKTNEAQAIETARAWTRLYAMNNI
CCR6 antag = CCR6 receptor antagonists, primary screen, cell-based, CHO-K1, luminescence, beta-arrestin, uHTS | inhibition, % at 20 µM | 0.49% of 340,000 active | C-C chemokine receptor type 6 (Homo sapiens), P51684 | CHO-K1 CCR6 PathHunter beta-arrestin, CCL20-stimulated;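 active = compounds whose inhibition of the agonist-driven luminescence signal at 20 µM reaches about 50%, limit read from the data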;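 note: cells stimulated with CCL20 at 14 nM final; plate controls were DMSO with CCL20 for no effect and DMSO without agonist for full effect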
Target sequence (P51684 whole entry, looked up): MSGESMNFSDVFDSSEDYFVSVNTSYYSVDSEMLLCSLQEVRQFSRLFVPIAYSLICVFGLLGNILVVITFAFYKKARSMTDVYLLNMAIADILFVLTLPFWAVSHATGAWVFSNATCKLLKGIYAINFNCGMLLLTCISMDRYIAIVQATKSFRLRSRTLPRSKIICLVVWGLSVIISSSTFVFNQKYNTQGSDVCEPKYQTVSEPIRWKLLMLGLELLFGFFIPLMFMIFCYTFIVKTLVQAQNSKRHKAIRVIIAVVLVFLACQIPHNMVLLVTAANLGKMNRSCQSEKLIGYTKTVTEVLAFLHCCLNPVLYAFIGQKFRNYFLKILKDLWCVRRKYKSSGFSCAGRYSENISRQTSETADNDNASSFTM
CXCR6 block = CXCR6 receptor inhibitors, primary screen, cell-based, beta-arrestin, luminescence, CHO-K1 PathHunter, 1536-well | C-X-C chemokine receptor type 6 (Homo sapiens), O00574 | inhibition, % at 20 µM | 0.36% of 360,000 active; in the data active = inhibition above about 34%, passing the limit was not always enough;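 note: antagonist mode with CXCL16 agonist at 10 nM final; 0% = 10 nM CXCL16 with DMSO and 100% = unstimulated wells without agonist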
Active calls of the source: *; · = no result given; & = joins results of further samples. An excerpt. The share of hits here may be higher or lower than overall.

The first 2 entries, ahead of the listing:
(1) OCCOc1ccccc1
(2) CC1CCC/C=C/C2CC(O)CC2C(O)/C=C/C(=O)O1 (configuration not stated)
Screen / compound no.,1,2
APJ antag,-31,-1
EBI2 block,-4,-14
UBC13 inh,-2,-3
CCR6 antag,-8,5
CXCR6 block,-2,-8

The list itself, from the start:
(1) OCCOc1ccccc1
(2) CC1CCC/C=C/C2CC(O)CC2C(O)/C=C/C(=O)O1 (configuration not stated)
(3) C[C@]12CCC(=O)C[C@H]1CC[C@@H]1[C@@H]2CC[C@]2(C)C(=O)CC[C@@H]12
(4) C[C@]12CCC(=O)C=C1C=CC1C2CC[C@@]2(C)C1CC[C@@H]2O (some centres not stated)
(5) C[C@H]1CCC/C=C/[C@@H]2C[C@H](O)C[C@H]2[C@H](O)/C=C/C(=O)O1
(6) CC(C)(C)c1cc([N+](=O)[O-])cc(C(C)(C)C)c1O
(7) O=C1CC[C@@]2(O)[C@H]3Cc4ccc(O)c5c4[C@@]2(CCN3CC2CC2)[C@H]1O5
(8) C[C@@H]1O[C@@H](O[C@H]2C[C@@H](O)[C@]3(CO)[C@H]4[C@H](O)C[C@]5(C)[C@@H](C6=CC(=O)OC6)CC[C@]5(O)[C@@H]4CC[C@]3(O)C2)[C@H](O)[C@H](O)[C@H]1O
Screen / compound no.,1,2,3,4,5,6,7,8
APJ antag,-31,-1,8,·,1&24,21,-17,-3&4
EBI2 block,-4,-14,-1,2,3&7,·,4,-6
UBC13 inh,-2,-3,-16,·,0&-2,-66,5,-7&-1
CCR6 antag,-8,5,10,9,-10&-6,4,0,1
CXCR6 block,-2,-8,-4,3,2&4,·,3,-15

Results in CXCR6 block and UBC13 inh, for two of the compounds above:
# | SMILES | CXCR6 block | UBC13 inh
2 | CC1CCC/C=C/C2CC(O)CC2C(O)/C=C/C(=O)O1 (configuration not stated) | -8 | -3
6 | CC(C)(C)c1cc([N+](=O)[O-])cc(C(C)(C)C)c1O | · | -66

(cont.)
(9) OCC1CO1 (configuration not stated)
(10) c1ccc2nc(N3CCNCC3)ccc2c1
(11) CC(C)c1c(CN(C)C(C)Cc2ccccc2)n(C)n(-c2ccccc2)c1=O (configuration not stated)
(12) CN(C)[C@@H]1C(=O)C(C(N)=O)=C(O)[C@@]2(O)C(=O)C3=C(O)c4c(O)cccc4[C@@](C)(O)[C@H]3[C@H](O)[C@@H]12
(13) CC(C)(C)c1ccc(CSc2cnn(C(C)(C)C)c(=O)c2Cl)cc1
(14) c1ccc([C@@H]2CO2)cc1
(15) Clc1cc(Cl)c(-c2cc(Cl)c(Cl)cc2Cl)cc1Cl
(16) COc1ccc2c(c1OC)C(=O)OC2C1c2cc3c(cc2CCN1C)OCO3 (configuration not stated)
Screen / compound no.,9,10,11,12,13,14,15,16
APJ antag,16,9,12,4,0,-4,3,9
EBI2 block,-5,-3&2,9,-15&-12,·,3,13,-2
UBC13 inh,-6,-30,10,-16,4,-2,-2,9
CCR6 antag,-2,-10&3,14,15&27,18,4,16,14
CXCR6 block,4,3&-2,-1,-6&-7,5,2,1,-9

Full records as entered above. Order of values: APJ antag | EBI2 block | UBC13 inh | CCR6 antag | CXCR6 block
Listed for COc1ccc2c(c1OC)C(=O)OC2C1c2cc3c(cc2CCN1C)OCO3 (configuration not stated) : 9 | -2 | 9 | 14 | -9
Listed for c1ccc2nc(N3CCNCC3)ccc2c1 : 9 | -3&2 | -30 | -10&3 | 3&-2
Listed for C[C@]12CCC(=O)C=C1C=CC1C2CC[C@@]2(C)C1CC[C@@H]2O (some centres not stated) : · | 2 | · | 9 | 3

More records:
Field names: A = APJ antag; B = EBI2 block; C = UBC13 inh; D = CCR6 antag; E = CXCR6 block
17: Clc1ccc(CCC(Cn2ccnc2)Sc2c(Cl)cccc2Cl)cc1 (configuration not stated)
  A = -5 | B = 10 | C = 48* | D = 5 | E = -2

18: Nc1ncn[nH]1
  A = 13 | B = -2 | C = 7 | D = 7 | E = -1

19: CCCC(C)(COC(N)=O)COC(=O)NC(C)C (configuration not stated)
  A = 3 | B = -2 | C = 17 | D = -8 | E = 1

20: CN[C@H]1C[C@H]2O[C@@](C)([C@H]1OC)n1c3ccccc3c3c4c(c5c6ccccc6n2c5c31)C(=O)NC4
  A = 15 | B = · | C = 26 | D = · | E = ·

21: OCCOCCO
  A = -27 | B = 7 | C = 5 | D = 1 | E = -4

22: C[N+]1(C)[C@@H]2CC(OC(=O)[C@H](CO)c3ccccc3)C[C@H]1[C@@H]1O[C@@H]12 (some centres not stated)
  A = 0&-9 | B = -7&-4 | C = 8&2 | D = 1&3 | E = -6&-5

23: Cc1cccc(C)c1NC1=NCCCS1
  A = 1 | B = -3 | C = -1 | D = 1 | E = 4

4 compounds picked at random from the list so far:
Field names: A = APJ antag; B = EBI2 block; C = UBC13 inh; D = CCR6 antag; E = CXCR6 block
20: CN[C@H]1C[C@H]2O[C@@](C)([C@H]1OC)n1c3ccccc3c3c4c(c5c6ccccc6n2c5c31)C(=O)NC4
  A = 15 | B = · | C = 26 | D = · | E = ·

17: Clc1ccc(CCC(Cn2ccnc2)Sc2c(Cl)cccc2Cl)cc1 (configuration not stated)
  A = -5 | B = 10 | C = 48* | D = 5 | E = -2

18: Nc1ncn[nH]1
  A = 13 | B = -2 | C = 7 | D = 7 | E = -1

21: OCCOCCO
  A = -27 | B = 7 | C = 5 | D = 1 | E = -4

Screens as filed in PubChem.
